Screening data deposited in PubChem BioAssay by several laboratories.
Rv3671c inh = inhibits the M. tuberculosis serine protease Rv3671c. AID 2606. hit rate 0.048% among 320,000. P9WHR9. inhibition, % at 5.96 µM; in the data active = inhibition above about 38%;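 note: extracellular domain of Rv3671c used as enzyme; 0% = enzyme with DMSO and 100% = no enzyme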
PrPC TRFRET = reduces human prion protein on the cell surface; cell surface PrPC, TR-FRET read-out; hit rate 0.43% among 370,000; inhibition, % at 13.8 µM; in the data active = inhibition above about 24%; note: 0% = median of the test wells and 100% = reference compound wells
MazF activator = increases E. coli MazEF RNase cleavage of RNA | hit rate 0.32% among 350,000 | activation, % at 20 µM | P0AE70 | FAM/BHQ RNA-DNA oligo cleavage fluorescence, 5 h; in the data active = activation above about 50%
Anthrax LF inh2 = inhibitors of Bacillus anthracis lethal factor protease; hit rate 0.12% among 360,000; inhibition, % at 10 µM; P15917; multiplex microsphere protease cleavage assay, LF; in the data active = inhibition above about 30%; note: plate controls were buffer without enzyme for full effect and enzyme alone for no effect
3CLpro inhibitor = SARS-CoV 3CLpro protease inhibition; P0C6X7; recombinant SARS-CoV 3CLpro, quenched FRET peptide cleavage; inhibition, % at 6 µM; hit rate 0.14% among 290,000; AID 1706; in the data active = inhibition above about 12%
Numbers without * were called inactive; · = not tested or not shown.

Letters: A = Rv3671c inh; B = PrPC TRFRET; C = MazF activator; D = Anthrax LF inh2; E = 3CLpro inhibitor
CN1CCN(C(=O)c2ccc(NS(=O)(=O)c3ccccc3)cc2)CC1
  A: -10.0 | B: 0.9 | C: 3.8 | D: -2.6 | E: -1.0
Cc1cc(C)c(/C=C2\C(=O)Nc3ccccc32)[nH]1
  A: -2.6 | B: -9.5 | C: -111.0 | D: -2.0 | E: -5.6
NS(=O)(=O)c1ccc(NC(=O)Nc2ccc(Cl)cc2)cc1
  A: -26.3 | B: 20.8 | C: 11.9 | D: 0.1 | E: -3.0
Cc1cccc(CCN2CCC(C(=O)c3ccc(NS(C)(=O)=O)cc3)CC2)n1
  A: -6.0 | B: · | C: · | D: · | E: 3.7
Cc1ccc(NC(=O)c2sccc2SCc2cccc(C(F)(F)F)c2)cc1
  A: -9.1 | B: 5.3 | C: -7.4 | D: -4.7 | E: 8.0
COc1cccc(C(=O)Nc2cc3c(cc2N2CCOCC2)n(C)c(=O)n3C)c1
  A: -3.1 | B: 2.9 | C: 2.6 | D: -1.3 | E: -4.5
O=C(N/N=C/c1ccc(Sc2ccccn2)o1)c1cccc([N+](=O)[O-])c1
  A: 2.3 | B: -6.9 | C: 0.3 | D: -1.7 | E: -4.0
Cc1ccc(S(=O)(=O)n2c(C)nc3ccccc32)cc1
  A: 5.0 | B: -2.3 | C: 1.2 | D: 4.5 | E: -2.4
O=C(C=Cc1cccs1)c1ccccc1
  A: · | B: 2.7 | C: 11.5 | D: 5.0 | E: ·
COCc1cc(C)nc(SCC(=O)c2ccc(O)c(O)c2)c1C#N
  A: -9.3 | B: -34.1 | C: 2.8 | D: -0.7 | E: 7.0
COc1cccc2c1C(=O)c1c(O)c3c(c(O)c1C2=O)C[C@@](O)(C(=O)CO)C[C@@H]3OC1CC(N)C(O)C(C)O1 (some centres not stated)
  A: · | B: -29.5 | C: -316.0 | D: -46.0 | E: ·
COc1ccccc1CCNC(=O)c1cc(-c2ccncc2)nc2ccc(Br)cc12
  A: · | B: 8.4 | C: -5.3 | D: -2.1 | E: 1.2
Nc1nc(Cl)c(N)c(NCC2(CO)CC(CCc3ccccc3)C2)n1 (configuration not stated)
  A: · | B: 2.8 | C: -67.4 | D: -7.9 | E: ·

Individual results from the list.
`NS(=O)(=O)c1ccc(NC(=O)Nc2ccc(Cl)cc2)cc1` in MazF activator is listed with 11.9
`Cc1ccc(NC(=O)c2sccc2SCc2cccc(C(F)(F)F)c2)cc1` in Anthrax LF inh2 is listed with -4.7

Some of these compounds in order of number of heavy atoms, highest first.
Letters: A = Rv3671c inh; B = PrPC TRFRET; C = MazF activator; D = Anthrax LF inh2; E = 3CLpro inhibitor
CN1CCN(C(=O)c2ccc(NS(=O)(=O)c3ccccc3)cc2)CC1
  A: -10.0 | B: 0.9 | C: 3.8 | D: -2.6 | E: -1.0
NS(=O)(=O)c1ccc(NC(=O)Nc2ccc(Cl)cc2)cc1
  A: -26.3 | B: 20.8 | C: 11.9 | D: 0.1 | E: -3.0
Cc1cc(C)c(/C=C2\C(=O)Nc3ccccc32)[nH]1
  A: -2.6 | B: -9.5 | C: -111.0 | D: -2.0 | E: -5.6

A portion of the library, so the mix of outcomes need not match the whole.
